Arbovirus anti: arbovirus infection inhibition; 0.37% of 200,000 active; inhibition, % at 10 µM; arbovirus infection cell-based antiviral screen; AID 1251;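 active means inhibition from about 30%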;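 further: bluetongue infection of BSR cells; cell survival read as ATP light after 72 h; 0% = infected wells without compound and 100% = uninfected wells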
Mtb H37Rv: M. tuberculosis H37Rv growth inhibitors, H37Rv strain (AID 1626); M. tuberculosis H37Rv growth inhibition; higher % means a stronger effect; inhibition, % at 10 µM; hits with a dose series show IC50 in µM; 0.95% of 220,000 active;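 active means confirmed in a dose series; inconclusive means inhibition above 80% but not taken into the dose series; inactive means below 80% or under 30% at every dose of the series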;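 further: bacteria incubated seven days before Alamar blue readout; 0% = bacteria only wells and 100% = bacteria with antibiotic wells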
RecA splice inh: inhibitors of M. tuberculosis RecA intein splicing; P9WHJ3; cell-free RecA intein splicing, fluorescence; inhibition, %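 (about 9 µM by stock and volumes)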; 0.75% of 290,000 active; AID 2221; in the data active means inhibition above about 30%; inconclusive means no clear call, values can overlap the other calls;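 further: 0% = vehicle wells and 100% = reference inhibitor control wells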
Target sequence (P9WHJ3 whole entry, looked up, canonical isoform): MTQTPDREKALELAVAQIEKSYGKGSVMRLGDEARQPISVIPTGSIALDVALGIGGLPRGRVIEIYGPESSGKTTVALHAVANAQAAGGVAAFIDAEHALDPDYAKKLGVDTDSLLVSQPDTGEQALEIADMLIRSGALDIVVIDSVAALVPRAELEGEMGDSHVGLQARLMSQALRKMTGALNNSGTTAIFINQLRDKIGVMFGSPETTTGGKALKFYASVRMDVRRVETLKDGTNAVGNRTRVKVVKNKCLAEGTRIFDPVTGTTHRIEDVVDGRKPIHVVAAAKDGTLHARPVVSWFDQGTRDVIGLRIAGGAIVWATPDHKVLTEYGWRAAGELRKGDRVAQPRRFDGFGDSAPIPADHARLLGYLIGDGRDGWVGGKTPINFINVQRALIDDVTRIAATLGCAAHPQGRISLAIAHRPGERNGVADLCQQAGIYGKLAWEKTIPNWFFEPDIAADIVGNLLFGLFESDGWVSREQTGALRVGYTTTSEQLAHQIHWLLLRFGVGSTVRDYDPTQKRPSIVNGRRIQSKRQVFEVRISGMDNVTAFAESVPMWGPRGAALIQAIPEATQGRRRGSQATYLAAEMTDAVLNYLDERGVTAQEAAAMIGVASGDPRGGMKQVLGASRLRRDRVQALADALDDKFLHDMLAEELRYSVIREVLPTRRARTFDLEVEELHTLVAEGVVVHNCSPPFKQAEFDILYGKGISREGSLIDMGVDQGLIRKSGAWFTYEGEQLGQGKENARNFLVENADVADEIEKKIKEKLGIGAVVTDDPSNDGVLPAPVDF
YopH PTP inh: YopH (Yersinia) phosphatase inhibition; fluorescence Ex485/Em525; inhibition, %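 (about 10 µM by stock and volumes)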; 0.16% of 140,000 active; AID 898;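 active means inhibition of 50% or more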;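 further: controls were vehicle for no effect and minimum signal wells for full effect; inactives centre near -20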
Mtb bLac sens: beta-lactam sensitization of Mtb H37Rv; M. tuberculosis H37Rv growth with meropenem, percent inhibition; hits of this screen are not shown here; inhibition, % at 25 µM; 0.27% of 330,000 active; AID 434955;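 active means about 74% or more and at least 40 points above the plate without the antibiotic, then above 30% in a dose series; inconclusive means first-round hits that could not be retested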;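 further: growth measured after seven days incubation then overnight dye step; 0% = bacteria only wells and 100% = bacteria with antibiotic; twin plates without the antibiotic show which effects depend on it; some results filed as inactive read as strong as hits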
Arbovirus anti repeat: also measured in Arbovirus anti; calls as there; inhibition, %; measured here: 10K subset replicate screen; many hits read low in the repeat;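 first of two repeat runs on a subset; 0% = infected and 100% = uninfected wells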
* marks the source's active call; other numbers are inactive results; ? = inconclusive; / = not tested or not shown.

SMILES	Arbovirus anti	Mtb H37Rv	RecA splice inh	YopH PTP inh	Mtb bLac sens	others
CN1C(=O)C(O)(C2OC(C)(C)CCC2=O)c2ccccc21 (stereo not given)	-6.1	0.4%	0.4	-16.5	-14.8
C#CCN(C)CC/C=C1\c2ccccc2CSc2ccccc21	-4.8	-6.4%	/	-18.9	4.3
COc1ccccc1NC(=O)Nc1nc(CC(=O)N2CCN(c3ccccc3F)CC2)cs1	/	/	1.3	/	19.4
Cc1ccc(-n2nnnc2-c2cnoc2-c2cccc(F)c2)cc1	-13.5	-7.6%	0.6	-16.9	0.5
Cc1nn(C)c(C(=O)Nc2ccc(Br)cc2F)c1Br	-13.0	2.9%	-2.5	-27.7	-4.1
CC(C)n1cnc2cc(NCc3nc4ccccc4n3C)ccc21	7.2	13.1%	-0.6	-6.6	6.9
O=C(CCCN1C(=O)CCC1=O)Nc1ccc(Cl)c(C(F)(F)F)c1	4.7	-0.1%	-0.8	-29.5	-1.2
CCOc1cc(NC(=O)CCl)c(OCC)cc1NC(C)=O	14.9	?	-3.0	/	90.5
CC(C)Oc1cccc(C(=O)C2CCCN(C(=O)c3ccsc3)C2)c1 (stereo not given)	8.0	0.2%	-0.3	/	-8.0
O=C1C(=O)N(CCN2CCOCC2)C(c2ccc([N+](=O)[O-])cc2)/C1=C(/O)c1ccc2c(c1)OCO2 (stereo not given)	/	/	-4.1	/	-3.1
COc1ccc(OCCn2ccnc2)cc1	/	/	-2.3	/	3.1
COc1ccc(CNC(=O)c2coc(=O)c3ccccc23)c(OC)c1	14.7	4.2%	0.4	/	-1.4
O=C(CCn1nc(-c2ccccc2)c2ccccc2c1=O)NN1CCOCC1	8.7	-7.4%	0.6	/	-2.6
CC(Sc1nc2ccccc2n1C)C(=O)Nc1ccc(N2CCOCC2)cc1 (stereo not given)	0.0	2.7%	1.2	/	3.5
O=C(NCCCN1CCOCC1)C1CCC(=O)N1C1CCCCC1 (stereo not given)	3.0	3.2%	-0.6	-26.6	-7.7
O=C(O)c1ccc(N/N=C/c2ccc(-c3ccc(Cl)cc3Cl)o2)cc1	/	79.1%	-32.7	/	86.2
Cc1cc(=O)[nH]c(SCC(=O)Nc2ccc(S(=O)(=O)N3CCCCC3)cc2)n1	6.2	-17.9%	3.5	-30.7	-12.7
Cc1cc2cc(C)c3nnc(SCc4ccccn4)n3c2cc1C	-11.4	-0.5%	-0.8	-10.1	0.6
CC(C)n1cnnc1SCC(=O)NNC(=O)COc1ccc(Cl)cc1	/	/	1.0	/	-4.0
O=C(CN1CCN(c2ncc(C(F)(F)F)cc2Cl)CC1)Nc1ccc2c(c1)OCO2	-13.1	-10.8%	-3.0	-126.8	5.7
CCOC(=O)COc1ccc(S(=O)(=O)Nc2ccc3c(c2)OCO3)cc1	5.5	61.9%	-5.1	-33.8	6.0
CCCn1c(C)cc(/C=C(\C#N)C(=O)OCC(=O)Nc2ccc(OC)c(Cl)c2)c1C	-3.5	-1.7%	-2.1	-12.3	-0.9
Cc1nc(NC(=O)CSc2nc(N)cc(N)n2)sc1C	/	/	-1.9	/	6.6
O=C(CN(c1cc(Cl)ccc1Cl)S(=O)(=O)c1ccccc1)N1CCOCC1	/	/	0.5	/	2.0
N/C(=N\OC(=O)COc1ccc(Br)cc1)c1cccc([N+](=O)[O-])c1	/	-2.4%	0.6	/	68.2
O=C(O)c1cccc(-n2cccc2/C=C2/NC(=O)N(Cc3ccccc3F)C2=O)c1	16.5	-6.4%	1.4	/	-2.8
Nc1c(C(=O)NC2CCCCC2)nsc1C(=O)OCC(=O)NC1CCCCC1	9.6	2.04µM*	4.1	-39.5	99.5
c1ccc(-c2cnc(CN3CCN(c4ccccc4)CC3)o2)cc1	/	/	3.2	/	-4.8
CCOc1ccc(/C=C/C(=O)OCC(=O)c2ccccc2OC)cc1OC	/	/	0.7	/	1.6
CCc1ccc(N/C(SC)=C(/C#N)C(N)=O)cc1	7.1	-0.2%	2.1	-42.6	-4.0
CC(C)Oc1ccc(C2CC(=O)NC2=O)cc1 (stereo not given)	/	/	-2.7	/	11.3
c1cncc(CNCCc2c[nH]c3ccccc23)c1	1.1	0.5%	3.7	/	-1.6
O=S(=O)(NCc1cccc(C(F)(F)F)c1)NCc1ccccc1F	4.6	/	-3.2	/	-2.1
CC(Oc1ccc(Cl)cc1Cl)C(=O)NNC(=O)C(=O)N1CCCCC1 (stereo not given)	-3.1	-5.1%	-4.4	-20.1	-2.1
COc1ccc(-c2noc(COc3ccc4c(c3)OCO4)n2)cc1OC	-7.5	5.8%	-0.1	-13.2	-1.6
CCC(C)(C(=O)NC1CCCCC1)N(Cc1ccco1)C(=O)c1ccc2c(c1)OCO2 (stereo not given)	-11.3	-0.9%	-1.8	3.3	3.4
CC(OC(=O)CN1C(=O)COc2ccccc21)C(=O)NCc1ccc(F)cc1 (stereo not given)	/	/	-2.3	/	-6.7
CCCCCCNC(=O)N[C@H](Cc1ccc(O)cc1)C(=O)NCCC[C@H]1CN2C(=NC[C@H]2CCC)N1CC1CCC1	/	/	4.2	/	85.5
COC(=O)c1ccc(NC(=O)Nc2ccc3c(c2)OCO3)cc1	/	/	0.6	/	-6.1
Cc1ncc2c(n1)-c1cc(F)ccc1SC2	/	/	-1.6	/	2.3
CC(C)(C)NCC(O)COCc1ccc(Cl)cc1 (stereo not given)	-2.1	-2.6%	0.1	-2.0	14.2
CCN1CCN(c2ccc(S(=O)(=O)N3CCCCC3)cc2NC(=O)c2cccc(Cl)c2)CC1	/	/	0.6	/	-4.9
OC(C#CCCN1CCCCC1)(c1ccccc1)C1CCCCC1 (stereo not given)	/	1.4%	0.1	/	-0.5
O=C(Nc1nccs1)c1ccc(COc2ccccc2Cl)o1	-22.7	3.3%	1.9	/	-10.5
Cc1cc(C(=O)CSc2nnc(NCc3ccccc3)s2)c(C)n1C	6.9	-0.7%	1.0	-41.6	2.7
O=C(CCn1nc(-c2ccc(Cl)cc2)c2ccccc2c1=O)NCC1CCCO1 (stereo not given)	1.8	-6.7%	-0.3	-11.0	5.2
CCOc1ccc(C(=O)NC2CCN(S(=O)(=O)c3ccccc3)CC2)cc1	/	/	0.8	/	13.2
O=S1(=O)CCC(NC(=S)Nc2ccc3ccccc3c2)C1 (stereo not given)	/	-6.4%	1.0	/	-15.4

Nothing new here: 17 of the compounds above.
SMILES	Arbovirus anti	Mtb H37Rv	RecA splice inh	YopH PTP inh	Mtb bLac sens	others
CCOc1ccc(/C=C/C(=O)OCC(=O)c2ccccc2OC)cc1OC	/	/	0.7	/	1.6
CCc1ccc(N/C(SC)=C(/C#N)C(N)=O)cc1	7.1	-0.2%	2.1	-42.6	-4.0
CC(C)Oc1ccc(C2CC(=O)NC2=O)cc1 (stereo not given)	/	/	-2.7	/	11.3
c1cncc(CNCCc2c[nH]c3ccccc23)c1	1.1	0.5%	3.7	/	-1.6
O=S(=O)(NCc1cccc(C(F)(F)F)c1)NCc1ccccc1F	4.6	/	-3.2	/	-2.1
CC(Oc1ccc(Cl)cc1Cl)C(=O)NNC(=O)C(=O)N1CCCCC1 (stereo not given)	-3.1	-5.1%	-4.4	-20.1	-2.1
COc1ccc(-c2noc(COc3ccc4c(c3)OCO4)n2)cc1OC	-7.5	5.8%	-0.1	-13.2	-1.6
CCC(C)(C(=O)NC1CCCCC1)N(Cc1ccco1)C(=O)c1ccc2c(c1)OCO2 (stereo not given)	-11.3	-0.9%	-1.8	3.3	3.4
CC(OC(=O)CN1C(=O)COc2ccccc21)C(=O)NCc1ccc(F)cc1 (stereo not given)	/	/	-2.3	/	-6.7
CCCCCCNC(=O)N[C@H](Cc1ccc(O)cc1)C(=O)NCCC[C@H]1CN2C(=NC[C@H]2CCC)N1CC1CCC1	/	/	4.2	/	85.5
COC(=O)c1ccc(NC(=O)Nc2ccc3c(c2)OCO3)cc1	/	/	0.6	/	-6.1
Cc1ncc2c(n1)-c1cc(F)ccc1SC2	/	/	-1.6	/	2.3
CC(C)(C)NCC(O)COCc1ccc(Cl)cc1 (stereo not given)	-2.1	-2.6%	0.1	-2.0	14.2
CCN1CCN(c2ccc(S(=O)(=O)N3CCCCC3)cc2NC(=O)c2cccc(Cl)c2)CC1	/	/	0.6	/	-4.9
OC(C#CCCN1CCCCC1)(c1ccccc1)C1CCCCC1 (stereo not given)	/	1.4%	0.1	/	-0.5
O=C(Nc1nccs1)c1ccc(COc2ccccc2Cl)o1	-22.7	3.3%	1.9	/	-10.5
Cc1cc(C(=O)CSc2nnc(NCc3ccccc3)s2)c(C)n1C	6.9	-0.7%	1.0	-41.6	2.7

Following part.
SMILES	Arbovirus anti	Mtb H37Rv	RecA splice inh	YopH PTP inh	Mtb bLac sens	others
Cc1cc2n(n1)C(c1ccco1)Nc1ccccc1-2 (stereo not given)	7.0	-2.2%	0.3	-42.7	-8.3
O=C(Nc1ccc(F)cc1)NC1(C(=O)NCc2ccc3c(c2)OCO3)CCCCC1	-3.0	-0.5%	1.5	-15.7	-0.1
CC(C)(C)c1csc(NC(=O)c2ccccc2O)n1	/	/	1.5	/	2.9
CCCCn1nnc(N(C(=O)c2cccs2)C(=O)c2cccs2)n1	0.2	-3.2%	7.7	/	/
NC(=O)c1ccsc1NC(=O)COC(=O)CCOc1ccccc1	/	3.2%	1.3	/	-1.1
COc1cc2c(cc1OC)CN(C(=S)Nc1ccccc1)CC2	6.3	-5.7%	-7.5	-26.8	-6.0
Cc1nn(CC(=O)N2CCN(Cc3ccccc3)CC2)c(=O)c2ccccc12	-3.1	1.6%	1.3	-35.3	0.1
CC(C)N1CC(C(=O)Nc2ccc(S(=O)(=O)N3CCCCC3)cc2)CC1=O (stereo not given)	/	/	0.8	/	0.8
CCOC(=O)CC(=O)CSc1nc2c(cc1C#N)CCCCCC2	1.9	-2.8%	-11.3	/	-1.7
CCOC(=O)N/N=C(/c1ccccc1)C1CCCCC1	-0.5	5.7%	-0.9	/	-0.8
O=C(CN1C(=O)NC2(CCCC2)C1=O)Nc1cccc(Cl)c1	/	/	-0.6	/	-1.9
Cc1csc(NC(=O)CSc2nnc(C)n2Cc2ccco2)n1	1.2	-0.7%	-0.9	-35.1	-9.2
C/C(=N/NC(=O)c1sc(NS(=O)(=O)c2ccccc2)nc1C)c1ccc(F)cc1	-5.0	2.5%	0.8	13.8	0.5
COc1ccc(C2C(C(=O)N3CCCCC3)CCC(=O)N2c2cc(OC)c(OC)c(OC)c2)cc1 (stereo not given)	1.2	-7.2%	0.9	-13.4	-1.3	Arbovirus anti repeat=-3.0
CC(=O)NNc1nc(-c2ccccc2)cs1	-3.7	6.4%	0.5	/	-8.4
CN(C)c1ccc(-c2noc(C3CCN(S(=O)(=O)c4cccc(Cl)c4)CC3)n2)cc1	-23.6	-4.2%	-0.5	-32.1	-7.6	Arbovirus anti repeat=-18.4
O=C1C2(CCC13COC(c1ccc(O)cc1)OC3)COC(c1ccc(O)cc1)OC2 (stereo not given)	-3.2	-14.4%	-0.8	-14.6	-6.4
COc1ccc(Cl)cc1NC(=O)CN(C)C(=O)C1CC(=O)N(Cc2ccc(C)cc2)C1 (stereo not given)	/	/	2.0	/	-9.9
CC(C)c1ccc(/C=N/NC(=O)c2ccccc2Cl)cc1	-18.4	4.7%	1.5	/	-7.5
O=C(c1cccc(C(F)(F)F)c1)N1CCOC12CCN(c1ncc(C(F)(F)F)cc1Cl)CC2	-4.5	12.8%	-2.1	-15.2	2.7
CCOC(=O)c1c(N)sc(C(=O)N2CCCCC2)c1C	-3.9	-2.7%	0.7	-29.7	-6.1
NS(=O)(=O)c1ccc(NC(=O)COC(=O)COc2ccc(Br)cc2)cc1	/	-13.2%	-2.4	/	-0.4
CCc1cc(-c2nc(N)ncc2-c2ccc(Br)cc2)c(O)cc1OC	/	12.4%	-0.4	/	27.6
CC1CCN(C(=O)C2CCCCN2S(=O)(=O)c2cccc([N+](=O)[O-])c2)CC1 (stereo not given)	-3.2	7.4%	-0.2	/	0.0
CC1Cc2nc(SCC(=O)c3ccccc3)n(Cc3ccccc3)c(=O)c2S1 (stereo not given)	-7.3	-0.4%	-3.3	-37.0	-0.7
COc1cc(C2CC(c3cccnc3)=NN2c2ccc(F)cc2)cc(OC)c1OC (stereo not given)	0.7	5.5%	-33.9	/	1.6
CCOc1ncccc1C(=O)Nc1ccccc1F	/	6.5%	-3.0	/	6.4
CC(=O)Oc1ccccc1C(=O)Nc1ccccc1	/	16.6%	8.2	/	53.3
CCOc1ccccc1/C=C/c1onc(C)c1S(=O)(=O)N1CCC(C(=O)N2CCCCCC2)CC1	/	/	0.0	/	-0.2

Assay outcomes as filed in PubChem.

The list is partial, so the mix of outcomes need not match the whole.
